VACV mCherry inh = vaccinia inhibition (mCherry reporter); Vaccinia virus mCherry reporter infection, fluorescence; about a quarter of the inactives have no number; Potency, µM (doses to about 36.5 µM), for the others: at the top dose activity change, negative = inhibition, most hits filed as inhibitors; 310,000 compounds, 0.63% hits; AID 720579; active = well fitted inhibition curve with a large enough effect; inconclusive = small, poorly fitted or top-dose-only effect; inactive = no such curve, though single readings can be large or run the other way; tested in A549 cells; note: nearly all actives have a fitted effect of over 35% in size; inactives centre near -10
VACV Venus inh = inhibitors of vaccinia virus (Venus reporter); Vaccinia virus Venus reporter expression, fluorescence; Potency, µM (series often up to 36.5 µM), for the others: at the highest dose activity change, negative = inhibition, usual class: inhibitors; 330,000 compounds, 0.46% hits; AID 720580; active means well fitted inhibition curve with a large enough effect; inconclusive means small, poorly fitted or top-dose-only effect; inactive means no such curve, though single readings can be large or run the other way; tested in A549 cells; note: nearly all actives have a fitted effect of over 30% in size; inactives centre near -10
* = called active by the depositor; i = inactive; ? = inconclusive; nt = not tested or not shown; & = joins results of further samples; [ ] = remark or other dose. % is set by controls: 0 for no effect and ±100 for the full control effect; potency is the fitted concentration of half-maximal effect. The order is random; 0.87% or so of the library scored in one or more.

SMILES	VACV mCherry inh	VACV Venus inh
Cc1cccc(N2CCN(C(=O)c3ccc4nc(N5CCCCC5)sc4c3)CC2)c1C	i	5.0%
S=c1[nH]nc(-c2cccc(Cl)c2)n1Cc1ccccc1	-0.7%	-1.2%
Cc1ccc(-c2cc(-c3ccccc3)[nH]c(=S)c2C#N)cc1	-10.9%	-8.8%
CCOc1cc(N2CCOCC2)c(OCC)cc1NC(=O)c1c(C)noc1C	i	-15.1%
O=C(O)c1ccc(N=NN2CCCCC2)cc1	16.6%	7.2%
CC(C)(C)c1ccc(C(=O)C[n+]2ccc(Cl)c3ccc(Cl)cc32)cc1	?	?
CCN1CCN(c2ccc(NC(=O)C(C)C)cc2Cl)CC1	nt	-1.1%
CCOC(=O)N1CCN(c2c(Nc3cc(C)[nH]n3)c(=O)c2=O)CC1	i	-11.4%
CCc1cccc(C)c1NC(=O)Cn1ccn(Cc2ccc(Cl)cc2)c(=O)c1=O	-4.7%	-8.0%
CCOC(=O)[C@]12CCC=C1N(Cc1ccco1)C(=O)[C@H](CC(=O)NCc1ccc(C)o1)C2	-6.2%	-3.5%
N#CCC(=O)N1CC2(CC(c3cccc(NC(=O)COc4ccc(Cl)cc4)c3)=NO2)C[C@@H]1C(N)=O (some centres not stated)	i	-3.4%
COc1ccc(Cl)cc1C(=O)NC(C)C	i	-8.0%
Cc1ccc(C(=O)Nc2nnc(-c3ccc(C(C)(C)C)cc3)s2)cc1	-17.2%	-10.9%
O=C(Nc1ccc(F)cc1F)c1ccc(S(=O)(=O)N2CCCCC2)cc1	i	-14.3%
Cc1cc(NC(=O)CSc2nnc(C)o2)no1	i	-9.8%
c1ccc(-n2cc(CN3CCC(N4CCOCC4)CC3)c(-c3ccc4c(c3)OCO4)n2)cc1	i	-8.5%
Clc1cccc(Cl)c1NC1=NCCN1	-1.7%[87.9 µM]	-15.4%[87.9 µM]
COc1cccc(COC(=O)C2CCN(S(=O)(=O)c3ccc(Cl)cc3)CC2)c1OC	i	-7.8%
COc1ccc(/C=N/NC(=O)c2ccc(N(C)S(=O)(=O)c3ccccc3)cc2)cc1OC	?	-17.7%
Cc1nn(C(C)C(=O)NC2CCCCC2)c(=O)c2c1sc1ccccc12 (configuration not stated)	-1.5%	-4.4%
c1cncc(-c2nnc(-c3ccco3)o2)c1	-13.2%	-22.5%
O=C(COC(=O)Cc1ccc(Br)cc1)NCc1cccs1	-20.7%	-7.0%
Cc1ccc(OCC(=O)Nc2ccc(S(=O)(=O)N3CCCCC3)cc2)c([N+](=O)[O-])n1	i	-10.0%
Cc1cc(C)n(-c2ccc(C(=O)OCC(=O)NCc3ccco3)cc2)n1	-12.8%	-11.5%
O=C(CSc1nnc(COc2ccccc2)n1Cc1ccco1)NCc1ccco1	i	-5.1%

3 records drawn at random from those above, as already listed:
SMILES	VACV mCherry inh	VACV Venus inh
CCOC(=O)N1CCN(c2c(Nc3cc(C)[nH]n3)c(=O)c2=O)CC1	i	-11.4%
Cc1ccc(C(=O)Nc2nnc(-c3ccc(C(C)(C)C)cc3)s2)cc1	-17.2%	-10.9%
Cc1ccc(OCC(=O)Nc2ccc(S(=O)(=O)N3CCCCC3)cc2)c([N+](=O)[O-])n1	i	-10.0%

Continued:
SMILES	VACV mCherry inh	VACV Venus inh
CCCN(CC1CCCO1)C(=O)c1cc(COc2ccc(F)cc2F)on1 (configuration not stated)	-3.4%	-19.0%
COc1ccc(-c2sc3ccc(OC)cc3c2-c2ccc(OC)nc2)cc1	-0.9%	-8.0%
Cc1cc(C)c(NC(=O)CSc2ncc3c(n2)-c2cc(Cl)ccc2N(C)S3(=O)=O)c(C)c1	?	-29.2%
Cc1ccc(NC2=C(C(=O)c3ccccc3)N(C)S(=O)(=O)c3ccccc32)cc1	?	-25.3%
Cc1cc(N)n(-c2ccc([N+](=O)[O-])cc2)n1	-12.5%	-19.7%
COc1ccc(-c2nnc(SC(C(=O)c3c[nH]c4ccccc34)c3ccccc3)n2N)cc1OC (configuration not stated)	?	?
O=C(O)c1ccccc1-c1ccccc1C(=O)Nc1ccc2c(c1)C(O)c1ccccc1-2 (configuration not stated)	i	-8.7%
O=C(N/N=C/c1ccc(F)c(F)c1)c1cc2c(s1)-c1ccccc1CC2	nt	-7.0%
O=C(O)CCCc1ccc(N(CCCl)CCCl)cc1	-8.0%&-12.9%&-8.2%	-23.9%&-6.7%&-11.8%
Cc1cc(NS(=O)(=O)c2ccc(NC(=O)Cc3ccc([N+](=O)[O-])cc3)cc2)no1	-13.8%	-18.9%
C[C@H](CO)N1C[C@H](C)[C@@H](CN(C)Cc2ccc3c(c2)OCO3)Oc2ccc(NS(C)(=O)=O)cc2C1=O	i	-14.1%
CCn1nc(C)cc1C(=O)n1nc(C)c(Sc2ncccn2)c1C	-10.3%	6.1%
CC(C)c1cc(O)c(-c2ccccc2)c(=O)n1-c1ccc(Cl)cc1	-3.1%	7.1%
COc1ccc(-c2ncn(CCC#N)c2[N+](=O)[O-])cc1	i	-13.9%
COc1ccc2nc(NC(=O)C3CCN(C(=O)c4ccco4)CC3)sc2c1	i	-16.9%
CC(=O)Nc1cccc(OCc2cccc([N+](=O)[O-])c2)c1	?	-13.7%
CC(C)CNC(=O)c1ccccc1NC(=O)CCSc1ccccc1	-13.7%	-10.8%
COC(=O)C1=C(N)Oc2cc(C)[nH]c(=O)c2C1c1ccccc1OC (configuration not stated)	-12.2%	-12.4%
COc1cccc(C2C=C(c3ccc(C)c(C)c3)Nc3nnnn32)c1OC (configuration not stated)	-12.1%	-2.3%
Cc1cc(C(F)(F)F)nc(SCCN2CCOCC2)c1C#N	-15.1%	-10.8%
CCc1c(C)sc2c1CCN(C(=O)Nc1cc(Cl)c(OC)cc1OC)C2c1ccccc1 (configuration not stated)	-8.3%	-9.1%
CCN(CC(=O)Nc1cc(S(=O)(=O)N2CCCCC2)ccc1Cl)Cc1ccccc1	-25.3%	-16.5%
CCN(C(=O)CSc1nnc(-c2cccs2)n1N)c1c(N)n(Cc2ccccc2)c(=O)[nH]c1=O	-13.7%	-17.0%
Cc1ccc(C(=O)NCC(c2ccco2)N2CCc3ccccc32)cc1 (configuration not stated)	-10.6%	-15.9%
CN1CCN(C(=O)C[C@@H]2C[C@H]3c4cc(NC(=O)c5cccnc5)ccc4O[C@H]3[C@H](CO)O2)CC1	-8.3%	-9.5%

Two of these compounds in a different format:
SMILES | VACV mCherry inh | VACV Venus inh
COC(=O)C1=C(N)Oc2cc(C)[nH]c(=O)c2C1c1ccccc1OC (configuration not stated) | -12.2% | -12.4%
CCn1nc(C)cc1C(=O)n1nc(C)c(Sc2ncccn2)c1C | -10.3% | 6.1%

(further entries)
SMILES	VACV mCherry inh	VACV Venus inh
CC(C)[C@H](NC(=O)c1ccccc1F)C(=O)OCCN1C(=O)c2ccccc2C1=O	i	-8.6%
CCn1c(=O)c([N+](=O)[O-])c(NCCc2ccc(OC)c(OC)c2)c2ccccc21	-8.7%	-13.9%
CCNC(=S)NNC(=O)c1cc(C)nc2ccccc12	-3.3%	1.3%
COc1cc2sc3ccc(-c4ccc(CN5CCOCC5)cc4)cc3c(=O)c2cc1OC	-27.0%	?
CCOC(=O)c1c(C)[nH]c(C)c1S(=O)(=O)N1CCC(C(=O)Nc2ccccn2)CC1	-4.7%	-7.5%
COc1ccc(CN2CCNC(=O)C2CC(=O)NCCCC2CCCC2)c(C)c1C (configuration not stated)	i	-9.5%
Cn1c(=O)c2c(ncn2CC(=O)OCC(=O)Nc2ccc(F)cc2Cl)n(C)c1=O	-4.7%	-5.4%
c1ccc(OCCNc2ccn3nc(-c4ccccc4)cc3n2)cc1	i	-9.4%
CC1CCN(S(=O)(=O)c2ccc(C(=O)NNC(=O)C3CC3)cc2)CC1	i	-4.9%
CCOC(=O)C1CCCN(C(=O)Cn2c(=O)cc(C)c3c(C)nn(C)c32)C1 (configuration not stated)	-11.1%	-6.1%
O=[N+]([O-])c1ccc(N/N=C/c2cccc(O)c2)cc1	-12.0%	-13.3%
CC(=O)NC1(c2ccc(F)cc2)CCN(C(=O)Nc2ccc(F)cc2F)CC1	nt	-12.3%
O=C(Nc1nnc(S(=O)(=O)N2CCCc3ccccc32)s1)c1cccc(F)c1	-4.4%	-20.2%
O=C(C[n+]1cccc2cccc(O)c21)c1ccc(Br)cc1	-12.6%	-2.6%
CCC(C)n1c(SCC(=O)Nc2cc(C(C)(C)C)nn2-c2ccccc2)nc2ccccc2c1=O (configuration not stated)	-8.2%	-17.8%
CC(C)Nc1nc(Nc2ccc(C#N)cc2)c2sccc2n1	-16.9%	?
COc1cc(/C=C2\C(=O)N(C)C(=S)N2C)ccc1O	-4.1%	74.4%[activator]
COc1cc(NC(=O)NC(C)c2c(-n3cccc3)sc3c2CCCC3)cc(OC)c1OC (configuration not stated)	-20.4%	-29.1%
O=C(/C=C/c1ccccn1)c1ccc(Br)cc1O	-13.6%	-8.9%
CCOCCCNC(=O)C1CCN(c2nn3cc(-c4ccc(F)cc4)nc3s2)CC1	-22.2%	-22.3%
COc1ccc(CN(C(=O)c2nsc(Cl)c2Cl)C(C(=O)NC2CCCCC2)c2ccc(OC)cc2)cc1 (configuration not stated)	-11.6%	-22.3%
CCCNC(=O)COC(=O)c1cc2c(=O)n3ccccc3nc2s1	i	-0.5%
OC(c1cccc(Cl)c1)c1nc(-c2csc3ccccc23)cs1 (configuration not stated)	24.6%	6.0%
COc1ccccc1CNC(=O)C(C)n1c(=O)cc(C(F)(F)F)c2c(C)nn(C)c21 (configuration not stated)	-7.9%	4.6%
COc1ccc(-c2nc(SCC(=O)Nc3ccc4c(c3)OCCO4)c(-c3ccccc3)[nH]2)cc1	?	-25.9%

Reformatted with two lines to a compound: entries from further up
Fields: VACV mCherry inh | VACV Venus inh
> CCn1c(=O)c([N+](=O)[O-])c(NCCc2ccc(OC)c(OC)c2)c2ccccc21
→ -8.7% | -13.9%
> CCNC(=S)NNC(=O)c1cc(C)nc2ccccc12
→ -3.3% | 1.3%
> COc1cc2sc3ccc(-c4ccc(CN5CCOCC5)cc4)cc3c(=O)c2cc1OC
→ -27.0% | ?
> CCOC(=O)c1c(C)[nH]c(C)c1S(=O)(=O)N1CCC(C(=O)Nc2ccccn2)CC1
→ -4.7% | -7.5%
> COc1ccc(CN2CCNC(=O)C2CC(=O)NCCCC2CCCC2)c(C)c1C (configuration not stated)
→ i | -9.5%

Going on with the list.
SMILES	VACV mCherry inh	VACV Venus inh
O=C(COC(=O)C1=Cc2ccccc2OC1)NCc1ccco1	i	8.6%
COc1ccc(-c2ccc(N(C)C)cc2)cc1[C@H]1[C@@H]2C=CCC[C@@]2(C)C(=O)N1Cc1ccccc1	?	?
Cc1nc2nc(C(F)(F)F)[nH]c2nc1C	-7.9%	-8.1%
COc1cc(CC(=O)Nc2ccc(N3CCOCC3)cc2)cc(OC)c1OC	5.3%	-4.9%
COc1cccc(-c2nnc(NC(=O)c3cccs3)s2)c1	-1.6%	-4.7%
CN(C(=O)COC(=O)CNC(=O)c1ccc(C(C)(C)C)cc1)c1c(N)n(Cc2ccccc2)c(=O)[nH]c1=O	-2.3%	-16.1%
Cc1cc(C)cc(OCC(=O)N2CCC(c3nc4ccccc4s3)CC2)c1	-9.0%	3.6%
O=C(N/N=C/c1cccnc1)c1cc(-c2ccc(Br)cc2)nc2ccccc12	?	-13.3%
CN(C)S(=O)(=O)N1CCN(c2ccc([N+](=O)[O-])cc2)CC1	i	-3.6%
Nc1ccn(C2OC(COP(=O)(O)O)C(O)C2O)c(=O)n1 (configuration not stated)	31.6µM*	?
COc1ccc(NC(=O)CCNS(=O)(=O)c2ccc3c(c2)CC(C)N3C(=O)C2CC2)cc1 (configuration not stated)	8.7%[7.34 µM]	13.4%[7.34 µM]
O=C(COc1ccc(Oc2ccccc2)cc1)NCc1cn2ccccc2n1	?	?
Cc1nn(CC2CC2)c(=O)n1-c1cccc(Cl)c1	-10.3%	-3.5%
CCC(C)/C=C(C)/C=C/C1=CC2=C(Cl)C(=O)C(C)(OC(C)=O)C(=O)C2=CO1 (configuration not stated)	-6.4%	-6.3%
CCNc1nc(SCC(=O)Nc2ccccc2)nc(N2CCOCC2)n1	i	-4.2%
OC(CNC1CCCc2ccccc21)COc1c(Cl)cccc1Cl (configuration not stated)	-20.4%	-18.2%
CC(C)[C@@H]1C=C(C(=O)O)O[C@H](OCCCCO)C1	1.4%	6.2%
CC(=O)Nc1cccc(NC(=O)CSc2nc(=O)n(CCN3CCOCC3)c3c2CCCC3)c1	-13.6%	-1.6%
CC/C(O)=C1\C(=O)CC(c2ccccc2)CC1=NCCC(=O)O (configuration not stated)	-8.4%	-6.5%
Cc1ccc(O)c(NC(=O)C2CC(c3ccc(F)cc3)=NO2)c1 (configuration not stated)	?	-24.1%
O=C(CN1CCN(c2ncccn2)CC1)NCc1ccc2c(c1)OCO2	i	-2.5%
O=C(NNc1ccccc1)OCc1ccccc1	-7.5%	-21.0%
Cc1ccc(SC(C)C(=O)Nc2ncn[nH]2)cc1 (configuration not stated)	-26.7%	3.6%
CC(C)(C)NS(=O)(=O)c1ccc(OCC(=O)NCC2CCCO2)cc1 (configuration not stated)	-11.7%	0.4%
NS(=O)(=O)c1ccc(CCNCc2cccs2)cc1	-17.9%	-3.8%
COC(=O)Cc1nc(NC(=O)c2cccs2)sc1C	-15.8%	-10.2%
CCOC(=O)[C@@H]1[C@H]2COc3ccc(Br)cc3[C@@H]2N2C(=O)N(c3ccc(Br)cc3)C(=O)[C@@]12C	i	-15.5%
COc1ccc(OC)c(S(=O)(=O)Nc2ccc(-c3ccc4nncn4n3)cc2)c1	8.91µM*	10µM*
Cc1cnc(-n2ncc(C(=O)N(C)C3CCOC3)c2-c2cccs2)nc1-c1ccc(F)cc1 (configuration not stated)	-12.9%	-6.8%
CCOc1ccc(S(=O)(=O)N2CCC(C(=O)NCc3ccncc3)CC2)cc1Cl	?	-23.0%

Source: PubChem BioAssay
